Six1-Eya2 inh: blocks human Six1 binding to Eya2; Q15475+O00167; AlphaScreen GST-Six1/His-Eya2 binding, biochemical; stronger effect = lower value; control for the full effect not named in the record; activity change, % (concentration not given with the values); hit rate 0.56% among 360,000; AID 651725; in the data active = activity change below about -65%; inconclusive = about -30% to -65%; inactive = above about -30%; further: on the % scale 0 is the no-effect control and ±100 the full control effect
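Compounds are tested against tagged Six1 and Eya2 proteins bridged by glutathione donor and nickel acceptor beads; after a one-hour incubation at 37 °C without light, AlphaScreen emission is recorded.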
TRPML1 ag: activates the human TRPML1 channel; Q9GZU1; TRPML1-expressing cells, Ca2+ dye fluorescence, FDSS; host cell line not named in the record; reference of the full effect not given here; activation, % (test concentration not listed); hit rate 0.12% among 410,000; AID 624414; in the data active = activation above about 50%; inconclusive = about 30% to 50%; inactive = below about 30%; further: 0% is about no effect; the text of the record puts the active cut at 80%
Target sequence (Q9GZU1 whole entry, looked up): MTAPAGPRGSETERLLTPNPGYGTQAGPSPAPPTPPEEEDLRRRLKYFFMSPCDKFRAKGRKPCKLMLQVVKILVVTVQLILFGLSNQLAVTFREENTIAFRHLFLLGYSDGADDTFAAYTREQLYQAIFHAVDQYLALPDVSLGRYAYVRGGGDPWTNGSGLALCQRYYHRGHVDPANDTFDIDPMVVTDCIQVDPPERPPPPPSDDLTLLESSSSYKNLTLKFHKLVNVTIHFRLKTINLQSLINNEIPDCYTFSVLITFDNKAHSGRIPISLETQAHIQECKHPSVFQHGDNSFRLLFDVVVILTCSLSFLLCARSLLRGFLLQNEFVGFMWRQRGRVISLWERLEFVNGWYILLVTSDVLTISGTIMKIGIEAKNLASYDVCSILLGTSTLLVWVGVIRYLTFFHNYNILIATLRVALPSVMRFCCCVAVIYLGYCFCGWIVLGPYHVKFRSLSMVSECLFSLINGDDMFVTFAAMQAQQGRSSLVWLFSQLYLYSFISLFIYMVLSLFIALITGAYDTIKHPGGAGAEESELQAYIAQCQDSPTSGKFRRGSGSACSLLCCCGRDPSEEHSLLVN
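TRPML1-DL cells, Tet-induced overnight (~16 h, 37 degrees C), loaded 45-90 min at room temperature with Ca8 no-wash calcium dye plus quencher. FDSS fluorescence: 10 s baseline, compound pin-transfer, 110 s agonist read, then EC80 54-4 (4uM final) and 110 s antagonist read.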
CtBP-E1A blk: blocks the CtBP interaction with E1A; AlphaScreen GST-E1A/His-CtBP binding, 1536-well; stronger effect = lower value; control for the full effect not named in the record; activity change, % (no concentration beside the values); hit rate 0.49% among 340,000; AID 651724; in the data active means activity change below about -65%; inconclusive means about -30% to -65%; inactive means above about -30%; further: on the % scale 0 is the no-effect control and ±100 the full control effect; compound concentration not given in the record
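AlphaScreen with 125 nM GST-E1A and 125 nM His-CtBP (5X stocks) in Tris pH 8.0, 300 mM NaCl, BSA, Tween 20, TCEP. Compounds preincubated 2 h at 37 deg C, then glutathione donor/nickel acceptor beads added for 1 h at 37 deg C in dark.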
PINK1 modulator: PINK1 expression modulation | PINK1 immunofluorescence, high-content cytometry, 24 h | Potency, µM (doses to about 76.6 µM), for the others: at the highest dose activation (PINK1 increase), usual class: activators | hit rate 0.2% among 410,000 | AID 624263; active = well fitted activation curve with a large enough effect; inconclusive = small, poorly fitted or top-dose-only effect; inactive = flat fitted curve, though single readings scatter; cell line not stated here;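 further: potency means the concentration at half of the fitted maximal effect; % of control where 0% means no effect; nearly all actives have a fitted effect of over 65% in size; a mitochondrial uncoupler was the plate control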
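Cells are seeded, rested 12 hours, then given compound at five concentrations or DMSO for 24 hours. After fixation, blocking and antibody staining, PINK1 amount and mitochondrial localization are scored; CCCP serves as control.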
D2 PAM: positive allosteric modulators of human D2 dopamine receptor. P14416. DiscoveRx D2 beta-arrestin cells, luminescence, 90 min; 100% = 57 uM dopamine signal. potentiation, % (concentration not given with the values). hit rate 0.23% among 360,000. AID 624464; active = potentiation of 50% or more; inconclusive = 30% to 50%; inactive = 30% or less;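 further: compound concentration not given in the record; tested on top of an EC20 dose of dopamine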
Target sequence (P14416 whole entry, looked up): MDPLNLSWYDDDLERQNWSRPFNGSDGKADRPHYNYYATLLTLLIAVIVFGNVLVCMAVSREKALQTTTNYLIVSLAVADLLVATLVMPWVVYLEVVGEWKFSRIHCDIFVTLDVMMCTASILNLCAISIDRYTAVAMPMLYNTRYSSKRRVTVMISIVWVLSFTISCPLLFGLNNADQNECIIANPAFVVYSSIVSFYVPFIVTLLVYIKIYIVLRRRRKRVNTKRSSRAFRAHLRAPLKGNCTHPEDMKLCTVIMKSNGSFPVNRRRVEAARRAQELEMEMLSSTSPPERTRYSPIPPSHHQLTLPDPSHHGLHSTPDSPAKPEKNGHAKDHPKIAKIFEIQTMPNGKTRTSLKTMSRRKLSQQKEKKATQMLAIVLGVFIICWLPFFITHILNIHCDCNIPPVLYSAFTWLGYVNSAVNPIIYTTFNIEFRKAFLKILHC
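D2 cells co-treated with compound plus 50 nM dopamine (EC20) for 90 min at 37 deg C to detect potentiation. Beta-arrestin recruitment was read as enzyme-fragment luminescence after 1 h at ambient temperature. Full response was set by 57 uM dopamine.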
D2 agonist: agonists of human D2 dopamine receptor (beta-arrestin) | DiscoveRx PathHunter D2 beta-arrestin, luminescence, 90 min; 100% = 57 uM dopamine signal | activation, % (no concentration beside the values) | hit rate 0.084% among 360,000 | AID 624465; in the data active = activation above about 40%; inconclusive = about 15% to 40%; inactive = below about 15%; further: compound concentration not given in the record; the text of the record calls up to 30% inactive
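Agonist mode: compounds alone added to overnight-plated D2 PathHunter cells for 90 min at 37 C, with 57 uM final dopamine (EC100) defining full response. Beta-arrestin recruitment detected by chemiluminescent reagent, read after 1 h at ambient temperature.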
The depositor's hits bear a star; u = inconclusive; x = no result given; [ ] = another dose, or the depositor's remark. This is a random part of the collection; 1.3% or so of the library scored in one or more.

SMILES	CtBP-E1A blk	TRPML1 ag	Six1-Eya2 inh	D2 agonist	D2 PAM	PINK1 modulator
O=C(NC(=S)Nc1ccccc1)c1ccc(-c2ccccc2)cc1	4	-0.3	2	-1.0	-30	8.7%
Cc1ccc(NC(=S)NNC(=O)c2ccccc2OC(F)F)cc1	-24	0.8	1	-4.7	-30	u
CCOc1ccccc1C1c2[nH]c3ccccc3c2C[C@H]2C(=O)N(C3CC3)CC(=O)N12 (some centres not stated)	-4	1.8	-3	-2.2	-1	-1.2%
Cc1cc(NC(=O)c2cnn3c(C(F)F)cc(-c4ccccc4)nc23)no1	3	-0.4	-3	-1.0	-6	u
Cc1cc(/C=C2\SC(=S)NC2=O)c(C)[nH]1	-17	7.7	-28	-6.4	-12	-2.8%
CS(=O)(=O)N1Cc2cc(C(=O)NCC3CCCCC3)nc(-c3cccc(-c4cccnc4)c3)c2[C@H]1CCO	2	0.3	-6	x	x	-0.2%
COc1cc(C=NO)nc(-c2ccccn2)c1	3	-0.3	-92*	5.2	21	0.3%
O=C(C1=C[C@@H]2[C@H]3C(=O)N(c4cccc(Cl)c4)C(=O)[C@H]3[C@@H](C(=O)c3ccc(Cl)cc3)N2C=C1)c1ccccc1	0	2.8	-7	-2.2	-7	1.1%
COc1cc(NC(=O)Cc2ccc(S(=O)(=O)N3CCOCC3)s2)c(OC)cc1Cl	-13	-0.2	-22	4.9	-16	-0.4%
C=CCSc1nc2ccccc2n1S(=O)(=O)c1ccc(C)cc1	4	-0.8	2	-0.7	-8	1.4%
COc1cc(/C=N/NC(=S)NC(C)C)ccc1OCC(=O)Nc1c(C)cc(C)cc1C	6	4.4	6	2.8	4	5.8%
Cn1nccc1C(=O)NC1CCCc2c1cnn2-c1cc(F)cc(F)c1 (configuration not stated)	-6	0.4	5	10	1	0.9%
COc1ccc(OCC(=O)N/N=c2\oc3c(OC)cccc3cc2C(N)=O)cc1	17	-0.2	11	-4.9	-2	-5.1%
O=C(N/N=C/c1c[nH]c2ccccc12)C1COc2ccccc2O1 (configuration not stated)	15	1.9	-6	-2.7	-32	9.8%
COc1ccc(-c2cc(C(F)(F)F)n3ncc(C(=O)N4CCc5ccccc5C4)c3n2)cc1	27	1.8	11	-1.2	-5	2.1%

Brought forward from above: 3 entries, then new ones.
SMILES	CtBP-E1A blk	TRPML1 ag	Six1-Eya2 inh	D2 agonist	D2 PAM	PINK1 modulator
COc1ccc(OCC(=O)N/N=c2\oc3c(OC)cccc3cc2C(N)=O)cc1	17	-0.2	11	-4.9	-2	-5.1%
O=C(N/N=C/c1c[nH]c2ccccc12)C1COc2ccccc2O1 (configuration not stated)	15	1.9	-6	-2.7	-32	9.8%
COc1ccc(-c2cc(C(F)(F)F)n3ncc(C(=O)N4CCc5ccccc5C4)c3n2)cc1	27	1.8	11	-1.2	-5	2.1%
C=CCNC(=O)CC(=O)N/N=C/c1ccc(F)cc1	3	0.9	-3	-0.9	-9	-0.2%
CNc1nc(C)nc(-n2nc(C)cc2C)n1	3	-0.6	-4	-4.6	-3	1.8%
CCc1ccc(OCC(=O)OCC(=O)c2ccc3c(c2)NC(=O)CO3)cc1	-12	0.0	-10	1.7	-15	2.2%[38.3 µM]
Cc1ccc(N(C(=O)c2csnn2)C(C(=O)NC2CCCCC2)c2ccncc2)cc1 (configuration not stated)	0	-1.0	-13	-4.0	-10	1.1%
CN(C)c1ccc(CN(C(=O)COc2ccccc2)C2CCS(=O)(=O)C2)cc1 (configuration not stated)	0	0.8	-14	-3.3	-12	-0.3%
COc1ccc(OC)c(/C=N/NC(=O)c2c(C)nc3ccc(C)cn23)c1	-2	0.6	7	1.9	0	5.9%
Cc1ccc(C(=O)Nc2ccc3c(c2)nc(CCNC(=O)c2ccco2)n3C)cc1	-1	-1.6	-23	-4.8	-7	u
CCCCN1C(=O)/C(=C2\SC(N3CCOCC3)=NC2=O)c2ccccc21	8	-0.5	-3	-4.6	-2	4.6%
COc1ccc(C2C(C#N)=C(N)Oc3cc(N)ccc32)cc1 (configuration not stated)	x	1.1	-2	-4.2	3	u
O=C(N1CCOCC1)N1[C@H](COCc2ccccc2)C=CS1(=O)=O	-10	-0.2	14	-3.9	-5	14%
Cc1cccc(NC(=O)NCCN2C(=O)C3C4C=CC(C4)C3C2=O)c1 (configuration not stated)	2	2.1	-6	-1.5	-4	-1.3%
COC(=O)C(Cc1ccccc1)NC(=O)CNC(=O)c1sc2ccccc2c1Cl (configuration not stated)	-2	2.0	68	0.5	-5	-0.3%
CC1=Nn2c(nnc2-c2cccs2)SC1	-6	-0.5	-17	-5.2	-12	-0.1%
C#Cc1cccc(NC(=O)C2CCN(C(C)=O)CC2)c1	4	-0.6	3	-2.6	-8	0.3%
CCOC(=O)c1sc(N2C(=O)C(O)=C(C(=O)c3ccco3)C2c2ccc([N+](=O)[O-])cc2)nc1C (configuration not stated)	-11	-0.1	-13	-0.7	-7	-0.2%
CC1(C)CC(=O)C=C(Nc2ccc(Br)cc2F)C1	3	-1.0	3	-2.0	-5	0.0%
Cc1cc(NC(=O)CCSc2ccccc2)no1	5	0.4	6	-3.4	-11	0.5%
COc1ccc(SC[C@H](CC(C)C)N2CCN(CCc3ccccc3)CCC2=O)cc1	x	0.1	-21	-0.8	-29	u
CC(C)c1ccc(NC(=O)C2C3C=CC4(CN(Cc5cccnc5)C(=O)C24)O3)cc1 (configuration not stated)	x	0.4	3	1.1	-8	1.1%
COC(=O)c1c[nH]c2c1-c1cc(C(=O)OCc3ccccc3)n(S(=O)(=O)c3ccc(C)cc3)c1C(=O)C2=O	-18	-0.2	1	12	u	-6.0%
CC(=O)NN1C(=O)/C(=C\c2ccc(C)cc2)SC1=S	-7	1.0	-1	-1.4	-16	-8.3%[38.3 µM]
O=C(NC(=S)NC1CCS(=O)(=O)C1)c1ccccc1 (configuration not stated)	6	-0.3	13	-0.9	-8	2.7%
COc1ccc(CNCCCO)cc1OC	13	1.9	-1	0.2	-9	1.7%[38.3 µM]
COc1ccc(Cl)c(Cn2c(NCc3ccco3)nc3c2c(=O)n(C)c(=O)n3C)c1	-3	2.9	-17	-1.4	-22	2.6%
COCCCNC(=O)CCCN1C(=O)c2cccnc2Sc2ccccc21	-1	x	4	-5.2	-7	-0.4%
Cc1ccc(-c2cnc3c(c2)C(=O)N([C@H](C)CO)C[C@@H](C)[C@@H](CN(C)C(=O)Cc2ccccc2)O3)cc1	-12	x	1	-2.8	x	2.3%
COc1ccc2sc3cccc(NCCN(C)C)c3c(=O)c2c1	u	-0.5	u	-4.7	-10	-1.1%
O=[N+]([O-])c1ccccc1CN1CCN(Cc2ccccn2)CC1	1	1.9	1	-1.1	-11	1.4%
CC(C)(C)OC(=O)N1CCC(C(=O)N2CCOCC2)CC1	2	0.8	31	-3.0	9	-1.1%
COc1ccccc1N1CCN(C(=O)Cc2ccc(Cl)cc2)CC1	1	-0.2	9	-3.7	-2	1.2%
N#CCCN(CCC#N)C(=O)c1ccc(Cl)cc1	15	-0.2	4	1.4	-11	u
Cc1ccccc1OCc1csc(N)n1	7	1.6	1	1.6	-10	0.8%
CCOC(=O)c1c(NC(=O)CN(CC)CC)sc2c1CCN(C(=O)OCC)C2	-12	2.7	-8	-1.6	-12	u
O=C(NCC(c1cccs1)N1CCOCC1)c1cc(S(=O)(=O)N2CCOCC2)ccc1Cl (configuration not stated)	-22	1.2	4	15	-3	-0.4%
CCO[C@H]1OC(C(=O)O)=C[C@@H](c2ccc3c(c2)OCO3)[C@@H]1CCCO	3	-0.2	1	-0.9	14	1.2%
CC(OC(=O)CCCN1C(=O)c2ccccc2C1=O)C(=O)Nc1ncc(Cl)cc1Cl (configuration not stated)	14	-0.1	-1	0.2	-8	-4.1%
COc1ccccc1NC(=O)COC(=O)c1cc(C)oc1C	-6	1.8	-3	1.7	-1	0.3%
O=C(CN1C(=O)/C(=C/c2ccccc2Cl)SC1=S)NC1C=CS(=O)(=O)C1 (configuration not stated)	-12	-0.2	0	-2.3	-6	3.2%
COc1ccc(CCCc2nc3ccccc3[nH]2)cc1	-4	-0.1	-1	-1.7	-14	2.0%
Cc1ccc(OCC(=O)Nc2ccc(-c3nnc(-c4ccco4)o3)cc2)cc1	0	2.7	8	-0.2	6	-0.9%
CC(=O)NCCc1csc(-c2ccccc2)n1	5	0.4	3	-1.0	-8	x
Cc1ccc(S(=O)(=O)NCC(=O)N(CC(=O)NCC2CCCO2)C2CCCC2)cc1 (configuration not stated)	5	-1.1	8	0.3	5	0.2%
CCOC(=O)c1ccc(S(=O)(=O)N2CCN(C3CC(=O)N(c4ccc(OC)cc4)C3=O)CC2)cc1 (configuration not stated)	2	-0.1	5	0.4	1	1.0%
CCc1cccc(NC(=O)COC(=O)C2COc3ccccc3O2)c1 (configuration not stated)	-2	-0.8	22	-2.4	-15	1.8%
O=C(COC(=O)/C=C/c1ccc(OC(F)F)cc1)Nc1cccc(S(=O)(=O)N2CCOCC2)c1	-9	1.5	-2	-0.7	-10	-3.1%
O=C(c1ccco1)N1CCN(C(=O)c2ccc(-c3ccccc3Cl)o2)CC1	-18	3.8	-9	0.2	1	1.4%
Cc1ccc(CNC(=O)C2CCCN2S(=O)(=O)c2ccc3c(c2)C(C)(C)C(=O)N3C)cc1 (configuration not stated)	5	-1.0	10	-5.8	-5	-0.5%
CCN(CC)CCCCNc1ncc2cc(-c3cc(OC)cc(OC)c3)c(NC(=O)NC(C)(C)C)nc2n1	7	0.0	5	-5.2	-22	-1.2%
O=C(NCc1cccnc1)c1nc(-c2ccccc2)n(-c2ccccc2)n1	-26	1.7	u	-0.7	-3	-0.2%
O=C(O)c1ccc2cc(-c3ccccc3)[nH]c2c1	x	0.8	5	1.6	8	0.2%
CCOC(=O)c1sc(=NC(=O)c2ccc(S(=O)(=O)N(C)c3ccccc3)cc2)n(C)c1C	-1	0.5	2	-4.8	3	5.0%
NC(=O)c1c(NC(=O)CSc2nnc(-c3ccco3)n2-c2ccccc2)sc2c1CCC2	-13	1.5	-16	-3.3	-1	0.8%
COc1cccc(CN2CCN(Cc3ccc(C#CC(C)(C)O)s3)CC2CCO)c1 (configuration not stated)	-3	0.3	-3	-0.1	-17	0.8%
O=C(CSc1nnc(COc2ccc(Cl)cc2)o1)OC1CCCCC1	65	1.8	39	-0.3	7	-1.8%
Cc1ccc(OCCN2C(=O)C(=O)c3cccc(C)c32)cc1	-2	0.3	3	-7.7	-19	3.5%
CCOc1ccc(-c2noc(-c3ccncc3)n2)cc1OCC	4	-0.6	-1	-3.6	2	9.1%

Screening results (PubChem BioAssay)
